VCAM-1 augmentation = enhancers of VCAM-1 display on endothelial cells, imaging, high-content imaging, pooled HUVEC, TNFa stimulus (AID 457). 0.2% of 10,000 active. calls only. Pooled HUVEC, TNFa-induced VCAM-1 immunofluorescence imaging; hits of this screen are not shown here;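 active means a top-ranked rise in VCAM-1 staining upheld on image or statistical review; inactive means the rest, including candidates rejected on review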;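 further: compounds tested at 5 µM in the well; cells exposed to compound for 24 hours before fixing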
FPR binder = human FPR ligands by binding competition, primary screen, cell-based, FPRL1 counter-screen, flow cytometry. FPR-expressing cells, fluorescent ligand binding. 0.74% of 24,000 active. inhibition, %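 (tested at 6.7 µM)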. AID 440, 2006;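 further: 0% = buffer wells and 100% = receptor blocker peptide wells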
Target sequence (P21462 whole entry, looked up): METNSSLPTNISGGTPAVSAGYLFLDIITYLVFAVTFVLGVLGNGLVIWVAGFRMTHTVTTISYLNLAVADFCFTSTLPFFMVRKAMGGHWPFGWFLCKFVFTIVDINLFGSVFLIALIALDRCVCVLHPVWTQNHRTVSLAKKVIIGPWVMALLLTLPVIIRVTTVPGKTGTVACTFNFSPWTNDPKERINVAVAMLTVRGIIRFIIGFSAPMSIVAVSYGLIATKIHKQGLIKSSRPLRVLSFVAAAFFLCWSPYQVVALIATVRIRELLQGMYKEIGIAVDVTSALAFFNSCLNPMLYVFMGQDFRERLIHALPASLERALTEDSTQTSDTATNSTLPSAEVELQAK
FPRL1 binder = human FPRL1 ligands by binding competition, primary screen, cell-based, FPR counter-screen, flow cytometry | AID 441, 2006 | inhibition, %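 (tested at 6.7 µM)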 | FPRL1-expressing cells, fluorescent ligand binding inhibition | 0.3% of 24,000 active;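 further: 0% = buffer alone and 100% = receptor blocker peptide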
Target sequence (P25090 whole entry, looked up): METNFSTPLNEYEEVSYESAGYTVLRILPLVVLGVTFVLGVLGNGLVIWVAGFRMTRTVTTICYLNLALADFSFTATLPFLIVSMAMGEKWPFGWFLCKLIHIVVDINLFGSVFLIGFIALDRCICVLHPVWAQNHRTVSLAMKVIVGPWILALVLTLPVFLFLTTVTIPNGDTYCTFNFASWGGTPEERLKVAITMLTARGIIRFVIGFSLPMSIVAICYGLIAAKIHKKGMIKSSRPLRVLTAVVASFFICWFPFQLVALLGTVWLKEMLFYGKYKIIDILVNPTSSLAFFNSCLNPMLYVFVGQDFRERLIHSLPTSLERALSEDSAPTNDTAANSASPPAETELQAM
VCAM-1 down imaging = inhibitors of TNFa-induced VCAM-1 surface display, imaging, high-content imaging, pooled HUVEC, TNFa stimulus (AID 456); HUVEC TNFa-induced VCAM-1 surface expression, immunofluorescence imaging; numbers were filed only for top-ranked candidate wells; inhibition, % at 5 µM; hits with a dose series show IC50 in µM; 0.2% of 10,000 active;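 active means top tenth filtered wells with inhibition above zero that passed visual or statistical confirmation; inactive means the rest, including hits rejected on review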;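 further: 0% = stimulated vehicle wells and 100% = unstimulated cells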
VCAM-1 down = inhibitors of TNFa-induced VCAM-1 surface display, cell-based, plate reader, pooled HUVEC, TNFa stimulus (AID 454) | 0.2% of 10,000 active | inhibition, % at 5 µM | HUVEC TNFa-induced VCAM-1 surface immunofluorescence, plate reader; numbers were filed only for top-ranked candidate wells;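 active means compound among top-ranked inhibitors of TNF-induced VCAM-1 adhesion protein staining, with the hit upheld by image or statistical review; inactive means the rest, including hits rejected on review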;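 further: 0% = TNFa with vehicle and 100% = cells without TNFa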
* hit, by the source's call; i = inactive; nt = not tested or not shown.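 How the source made its calls, unless noted: active means mean above 30%; inconclusive means self-fluorescent; inactive means the rest.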 Only part of the results is shown; the hit share may differ from the screen's.

SMILES	VCAM-1 augmentation	FPR binder	FPRL1 binder	VCAM-1 down imaging	VCAM-1 down
Cc1ccc(Br)cc1S(=O)(=O)N1CCN(c2ccccc2)CC1	i	0	5	i	i
COc1ccc(N2CCN(c3nc4c(c(=O)[nH]c(=O)n4C)n3Cc3ccccc3Cl)CC2)cc1	nt	8	2	nt	nt
Cc1nc2sc(C(c3ccco3)N3CCC4(CC3)OCCO4)c(O)n2n1 (stereo not drawn)	nt	0	1	nt	nt
CCN(CC)c1ccc2c(C)c(-c3ccc(N)cc3)c(=O)oc2c1	i	4	-3	i	i
O=C(NCCc1ccc(Cl)cc1)C1CC(=O)N(C2CCCCC2)C1 (stereo not drawn)	nt	-1	0	nt	nt
COc1ccc2c(=O)c3c(=O)n(Cc4ccco4)c(C(C)C)nc3oc2c1	i	-4	-5	i	i
O=C(O)CCCCCNS(=O)(=O)c1c(Cl)cccc1Cl	nt	0	2	nt	nt
Cc1nc2c(C(=O)NCCc3ccccc3)c[nH]n2c(=O)c1Cl	nt	6	6	nt	nt
COc1ccc(NC(=O)C(c2ccc(OC)cc2)N(C)C(=O)CNC(C)=O)cc1 (stereo not drawn)	nt	-2	8	nt	nt
CCOC(=O)N1CCN(C(=O)CN(c2ccc(C)cc2)S(=O)(=O)c2c(C)noc2C)CC1	i	4	5	i	i
Cn1cccc1Cc1nnc(SCC(=O)Nc2ccc3c(c2)OCCO3)n1CCc1ccccc1	nt	-1	0	nt	nt
NC(=O)CCCCC(=O)OCCCc1cccs1	nt	-6	-2	nt	nt
CC12CCCCC1c1ccccc1C(=NCC(=O)O)N2 (stereo not drawn)	nt	-1	-2	nt	nt
COc1ccc(NC(=O)C2CCCN(S(=O)(=O)c3cccc4cccnc34)C2)cc1 (stereo not drawn)	nt	-12	-6	nt	nt
CC(=O)NCCn1c(SCc2ccccc2F)nc2ccccc2c1=O	nt	4	-4	nt	nt
O=C(O)Cn1cc2c(n1)CCCC2	i	3	-2	i	i
CCOC(=O)CSc1nnc(CNC(=O)c2cccs2)n1-c1cccc(C)c1	nt	0	7	nt	nt
CC1(C)CC(CCNC(=O)c2ccc(-n3cnnn3)cc2)CC(C)(C)N1	nt	1	-3	nt	nt
CCC(C)NC(=O)CCS(=O)(=O)c1ccc(Br)s1 (stereo not drawn)	nt	0	-4	nt	nt
CCCOc1ccc(/C=c2\sc3nc(-c4ccco4)nn3c2=O)cc1OCC	nt	3	-8	nt	nt
CCCC(=O)n1nc(-c2ccc(OC)cc2)nc1N	i	-3	0	i	i
COc1ccc(C2CC(c3ccc(Cl)c(Cl)c3)Nc3nc(N)nn32)cc1 (stereo not drawn)	nt	-1	4	nt	nt
COC(=O)C1=C(N)Oc2cc(C)n(Cc3cccnc3)c(=O)c2C1c1ccc(OC)c(OC)c1 (stereo not drawn)	nt	3	0	nt	nt
Cc1nn(-c2ccc(C(=O)O)cc2)c(N)c1-c1ccccc1	nt	0	-6	nt	nt
Cc1cncn1CCc1nc2c3ccccc3nc(=S)n2[nH]1	i	-1	2	i	i
C=CCn1c(=O)c2ccccc2n2c(SC(C)C(=O)Nc3nc(-c4ccccc4)cs3)nnc12 (stereo not drawn)	i	14	-2	i	i
CCOC(=O)N1CCN(c2ccc(C(=O)c3cccc(F)c3)cc2)CC1	nt	-12	-7	nt	nt
CCOC(=O)N1CCN(C(=O)Cn2ncc3ccccc32)CC1	nt	2	1	nt	nt
O=C(CCN1CCOCC1)Nc1ccc2c(c1)CCC2	i	-8	3	i	i
COc1ccc(N2C(=O)C(Cl)=C(N3CCCC3)C2=O)cc1	i	-2	0	i	i
O=C1CC(c2cccnc2)c2cc3c(cc2N1)OCO3 (stereo not drawn)	i	-10	-3	i	i
Cc1ccccc1NC(=O)c1cnc2ccccn2c1=O	nt	-3	-9	nt	nt
CCOC(=O)N1CCC(NS(=O)(=O)c2cc(Br)cnc2N)CC1	nt	0	-5	nt	nt
Cc1ccc(NC(=O)CN(C)S(=O)(=O)c2cccc3nsnc23)cc1	nt	0	-3	nt	nt
CC(C)(C#N)NC(=O)c1ccco1	nt	2	-8	nt	nt
CCOC(=O)N1CCN(C(=O)c2c(-c3ccccc3)noc2C)CC1	i	1	3	i	i
CCOc1ccc(Cc2nc(-c3nonc3N)no2)cc1OCC	nt	4	-10	nt	nt
O=C(NC1CCCCC1)c1noc2c1CCCCC2	nt	5	2	nt	nt
CCCS(=O)(=O)N1CCCC(C(=O)NCCN2CCC(Cc3ccccc3)CC2)C1 (stereo not drawn)	nt	-6	0	nt	nt
Cc1cc(=O)n2[nH]c(C)c(-c3ccc(Cl)cc3)c2n1	nt	-39	-8	nt	nt
COc1ccc(S(=O)(=O)N2CCOCC2)cc1C(=O)Nc1cc(C)on1	i	0	-2	i	i
CSc1nc(N2CCOCC2)c2ccccc2n1	i	-10	-1	i	i
Cc1nc(Sc2cccn2C)c(C(F)(F)F)c(=O)[nH]1	i	21	2	i	i
CN(C)c1ccc(CNC(=O)C2CCN(S(=O)(=O)c3ccc4c(c3)CCC(=O)N4)CC2)cc1	nt	3	4	nt	nt
Cn1c(NC(=O)C2c3ccccc3Oc3ccccc32)cc(=O)n(C)c1=O	nt	1	-2	nt	nt

Three structures out of the list, arranged by molecular weight, smallest number first:
SMILES	VCAM-1 augmentation	FPR binder	FPRL1 binder	VCAM-1 down imaging	VCAM-1 down
O=C(CCN1CCOCC1)Nc1ccc2c(c1)CCC2	i	-8	3	i	i
Cc1nn(-c2ccc(C(=O)O)cc2)c(N)c1-c1ccccc1	nt	0	-6	nt	nt
CCOc1ccc(Cc2nc(-c3nonc3N)no2)cc1OCC	nt	4	-10	nt	nt

Next structures follow:
SMILES	VCAM-1 augmentation	FPR binder	FPRL1 binder	VCAM-1 down imaging	VCAM-1 down
Cc1nc2ccc(S(=O)(=O)NCC(=O)N3CCOCC3)cc2s1	nt	-2	0	nt	nt
CCOc1ccc2[nH]c(=O)c(C(c3nnnn3CC3CCCO3)N3CCc4ccccc4C3)cc2c1 (stereo not drawn)	i	8	4	i	i
Cc1cc(NC(=O)c2ccccc2)ncc1NC(=O)c1ccco1	i	7	9	i	i
COc1ccc(OC)c(NC(=O)CSc2nnc(Cn3c(=O)sc4ccccc43)n2C)c1	nt	-5	4	nt	nt
Cc1cc(=O)oc(C)c1C(=O)NCCCN1C(C)CCCC1C (stereo not drawn)	nt	4	-2	nt	nt
NC(=O)c1c(NC(=O)CN2CCCC2)sc2c1CCCC2	i	-4	-2	i	i
Cn1c(=O)oc2cc(S(=O)(=O)NCCC(=O)N3CCc4ccccc4C3)ccc21	i	4	3	i	i
COc1ccc(-c2ccc(-c3noc(-c4ccccc4OC)n3)c(OC)n2)cc1	i	-7	-9	i	i
O=C1CCCc2c1cc(C(=O)NCc1ccco1)c(=O)n2-c1ccc(Cl)cc1	i	-21	-14	i	i
CCCCn1c(SCc2cccnc2)nc2c1c(=O)n(C)c(=O)n2C	i	-6	0	i	i
O=C(C1COc2ccccc2O1)N1CCCC1 (stereo not drawn)	i	-4	9	i	i
COc1ccccc1NC(=O)CSc1nnc(CC(=O)Nc2ccccc2)n1C	i	6	1	i	i
CC(C)NC(=O)C1CCN(C(=O)N(C)C)CC1	nt	-1	2	nt	nt
O=C(O)CC1CCCC(c2ccccc2)C1=O (stereo not drawn)	i	-8	-4	i	i
CCN(CC)CCCNc1oc(-c2cccc(Cl)c2)nc1C#N	i	4	-1	i	i
CC1=C(C(=O)OCC(C)C)C(c2cc3c(cc2Br)OCO3)NC(=O)N1C (stereo not drawn)	i	-15	-26	i	i
CCOC(=O)N1CCC(NC(=O)Cn2ncn3c(cc4sc(CC)cc43)c2=O)CC1	nt	-4	-4	nt	nt
CC1CCCCN1S(=O)(=O)c1ccc(C(=O)Nc2nnc(-c3ccccc3Cl)o2)cc1 (stereo not drawn)	nt	4	1	nt	nt
Cc1ccc(C2CC(c3cccc(C)c3)n3ncnc3N2)cc1 (stereo not drawn)	nt	7	10	nt	nt
CC(C)c1ccc(NC(=O)C(c2ccccc2)N2CCOCC2)cc1 (stereo not drawn)	nt	0	8	nt	nt
C=C(C)Cn1c(CCCNC(=O)C(C)(C)C)nc2ccccc21	i	-5	3	i	i
CCCCSc1cc(C)nc2ncnn12	i	0	6	i	i
O=C(C1CCN(c2nnc(-n3cccc3)s2)CC1)N1CCN(c2cccc(C(F)(F)F)c2)CC1	nt	3	-5	nt	nt
COc1ccc(OC)c(-c2cc(C(=O)NCc3cccs3)no2)c1	i	-3	0	i	i
CC1(C)Cc2noc(N)c2C(C)(C)N1OC(=O)c1ccco1	i	-2	0	i	i
COc1ccc2cc3cc(C(=O)NCCc4ccc(OC)c(OC)c4)oc3nc2c1	nt	-2	7	nt	nt
COC1CCCCC1Nc1cccc(SC)c1 (stereo not drawn)	i	0	4	i	i
Cn1c2c(c(=O)n(C)c1=O)C(c1cccc(Br)c1)C1C(=O)c3ccccc3C1=N2 (stereo not drawn)	i	12	-6	i	i
Cc1c2cnn(CC(=O)N3CCN(c4ncccn4)CC3)c(=O)c2c(C)n1Cc1ccc(F)cc1	i	-4	1	i	i
CC(C(=O)NC1CCCCCC1)N(c1ccccc1)S(C)(=O)=O (stereo not drawn)	i	3	-1	i	i

Overlap with the part before: two entries, then new ones.
SMILES	VCAM-1 augmentation	FPR binder	FPRL1 binder	VCAM-1 down imaging	VCAM-1 down
Cc1c2cnn(CC(=O)N3CCN(c4ncccn4)CC3)c(=O)c2c(C)n1Cc1ccc(F)cc1	i	-4	1	i	i
CC(C(=O)NC1CCCCCC1)N(c1ccccc1)S(C)(=O)=O (stereo not drawn)	i	3	-1	i	i
COc1ccc(CC(=O)OCC(=O)NC(=O)NC2CCCCC2)cc1	i	5	1	i	i
CCOC(=O)C1CCCN(C(=O)c2sc3nc(C)nc(N4CCOCC4)c3c2C)C1 (stereo not drawn)	nt	2	7	nt	nt
CS(=O)(=O)N(CC(=O)N1CCCCCC1)c1ccc(Br)cc1	i	1	0	i	i
CCOC(=O)N1CCN(C(=O)c2cnc(Nc3ccccc3OC)c3ccccc23)CC1	nt	-7	-9	nt	nt
Cc1cc(C)n(CNc2nc(C(F)(F)F)cs2)n1	nt	-2	-9	nt	nt
O=C(NCc1ccc2c(c1)OCO2)c1nnc(Cc2ccc(F)cc2)o1	nt	2	-2	nt	nt
COC(=O)Cc1c(C)nc2nc[nH]n2c1=O	i	-8	-5	i	i
Cc1c(NC(=O)C(C)OC(=O)C(NC(=O)c2ccco2)C(C)C)c(=O)n(-c2ccccc2)n1C (stereo not drawn)	i	-11	5	i	i
CCOc1ccc(C(=O)OCc2nnc(-c3cccs3)o2)cc1OC	i	1	-8	i	i
Cc1cc(NC(=O)Nc2cccs2)no1	nt	0	4	nt	nt
O=C1CCc2cc(S(=O)(=O)NC(C(=O)NCc3cccnc3)c3ccccc3)ccc2N1 (stereo not drawn)	nt	0	4	nt	nt
O=S(=O)(c1ccc(Br)s1)N1CCCCC1	i	2	-5	i	i
CCn1cc(C(=O)N2CCCCC2)c(=O)c2cc(S(=O)(=O)N3CCC(C)CC3)ccc21	nt	-5	2	nt	nt
O=C(Cc1ccccc1)N1CCCC(c2nc(-c3cccs3)no2)C1 (stereo not drawn)	i	0	-5	i	i
C=C(Cl)COC(=O)[C@H]1C2C=CC(C2)C1C(=O)O (stereo partly drawn)	i	-5	1	i	i
O=C1c2ccccc2NC(c2cccc(F)c2)N1Cc1ccco1 (stereo not drawn)	i	1	-1	i	i
CCc1nn(CC(=O)NCCCN(CC)Cc2ccccc2)c(=O)c2cc3sccc3n12	nt	-12	-5	nt	nt
CCCOC(=O)C1C2C=CC3(CN(c4cccc(Cl)c4)C(=O)C13)O2 (stereo not drawn)	i	7	1	i	i
COC(=O)c1ccccc1NC(=O)C1CCN(S(=O)(=O)c2cc(C)ccc2OC)CC1	i	6	-2	i	i
Nc1nc(C2CC2)c(Sc2sc(N)nc2C2CC2)s1	nt	1	-5	nt	nt
Cc1ccc(S(=O)(=O)n2ccnc2)cc1C	nt	-5	4	nt	nt
COc1ccc(Cn2nnnc2C(c2ccccn2)N2CCN(c3cc(Cl)ccc3C)CC2)cc1 (stereo not drawn)	i	-4	-5	i	i
CCOc1ccc(C(=O)CN2CCN(S(=O)(=O)c3ccc(Br)cc3)CC2)cc1	nt	2	-4	nt	nt
COc1cccc(OCC(=O)N(Cc2nc(-c3ccc(Cl)cc3)no2)C(C)C)c1	nt	8	-9	nt	nt
Cc1ccc(NC(=O)CCN2C(=O)c3ccncc3C2=O)cc1	nt	-4	-1	nt	nt
CCc1ccc(S(=O)(=O)NCc2cn3ccccc3n2)s1	nt	-7	-7	nt	nt

From PubChem
